BJeLR viability: kills HRASV12-expressing BJeLR cells; BJeLR (HRASV12) viability, CellTiter-Glo ATP luminescence, 48 h; reference of the scale not given here; inhibition, % (concentration not given with the values); actives 0.17% (n = 300,000); AID 1554;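 active means replicate mean above 50%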;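 further: 50 nL library stock added to about 25 µL; numbers are from one replicate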
Sa ugtP lethal: compounds lethal to S. aureus RN4220 ugtP deletion mutant; OD600 growth, 16 h; some inactives read as strong as hits; growth inhibition, % (no concentration beside the values); actives 0.54% (n = 330,000);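 active means z-score under -3 and OD600 up to 0.15 on both plates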;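 further: plate controls were untreated wells for no effect and antibiotic for full effect; wells of about 80 µL received 100 nL stock; the first replicate is given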
Bead autofluor: flagged as autofluorescent in microsphere protease counterscreen | AID 624483 | fluorescence intensity (test concentration not listed) | compound autofluorescence counterscreen, microsphere flow cytometry; active compounds read high | actives 3.1% (n = 360,000);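 active means at least 3 SD above the mean of all compounds, about 16000 in these data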;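 further: 100 nL of 1 mM stock went into each well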
Sa RN4220 lethal: kills Staphylococcus aureus RN4220; inhibition, % (test concentration not listed); AID 1259311; actives 0.33% (n = 330,000); S. aureus RN4220 growth, OD600, 16 h;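 active means z-score of -3 or lower and OD600 up to 0.18 on both plates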;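 further: plate controls were untreated cells for no effect and reference antibiotic for full effect; stock transfer was 100 nL into about 80 µL; one replicate is shown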
PrP 5UTR inh: inhibition of PrP 5' UTR reporter expression. cell-based PrP 5' UTR mRNA reporter, plate reader. AID 488862. actives 0.35% (n = 340,000). inhibition, % (test concentration not listed);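 active means every replicate at 50% or more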;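 further: 0 = median of the neutral control wells; tested in H4 reporter cells; numbers are from one replicate; inactives centre near -14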
Mtb hypoxia inh: inhibitors of hypoxia-regulated fluorescent reporter in Mycobacterium tuberculosis. fluorescence inhibition, % (no concentration beside the values). M. tuberculosis hypoxia-regulated fluorescent reporter, fluorescence. actives 0.1% (n = 300,000);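 active means 35 to 45% if threefold the growth effect, above 45% if 1.5-fold the growth effect; inactive means the rest, general growth blockers included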;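 further: wells of about 50 µL received 100 nL stock; 0% = vehicle wells and 100% = reference inhibitor wells; whole bacteria with a GFP reporter of the hypoxia response; strong numbers were not always called active; many hits fall short of the cut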
Mtb hypoxia inh growth: recorded beside Mtb hypoxia inh, whose call it bears; growth inhibition, %; measured here: M. tuberculosis growth (absorbance);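 0% = vehicle and 100% = reference antibiotic; read after six days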
* marks the source's active call; other numbers are inactive results; · = not tested or not shown.

SMILES	BJeLR viability	Sa ugtP lethal	Bead autofluor	Sa RN4220 lethal	PrP 5UTR inh	Mtb hypoxia inh	Mtb hypoxia inh growth
O=[N+]([O-])c1ccc(O)c([N+](=O)[O-])c1	-1	6	6172	15	-12	18	32
COc1ccc(NCC(=O)Nc2ccc(C#N)cc2)cc1Cl	-1	-23	22730*	13	-5	4	7
CCOC(=O)c1sc2nc3n(c(=O)c2c1C)CCC(C)CC3 (stereo not given)	-12	-5	11350	2.1	-44	11	1
CCOc1ccc(OCCC(=O)N(CCC2=CCCCC2)c2c(N)n(Cc3ccccc3)c(=O)[nH]c2=O)cc1	-6	-2	4480	2.7	2	-3	-2
CC(=O)n1cc(C2C(=O)CC(C)(C)CC2=O)c2ccccc21	-2	0	21921*	6.2	-21	6	-4
O=C1CCC(C(=O)OCc2cc(=O)oc3ccc4ccccc4c23)=NN1	15	-2	4718	-1.8	-3	-2	3
C/C(=N\NC(=O)Cn1cc([N+](=O)[O-])cn1)c1ccc(O)cc1	-5	·	5620	·	-13	·	·
Cc1csc(N2CCCC2c2nc3cc(C(F)(F)F)ccc3n2CCOCCO)n1 (stereo not given)	-9	-7	3943	3.7	-2	1	11
CCOC(=O)c1ccc(NS(=O)(=O)c2ccc(SC)cc2)cc1	-23	1	9952	9.9	-19	5	10
O=S(=O)(c1cccc(-c2nn3c(-c4ccncc4)nnc3s2)c1)N1CCOCC1	-2	7	·	4.3	·	4	10
O=C(NCc1ccccc1F)C(=O)NCC1CCCN1S(=O)(=O)c1ccccc1 (stereo not given)	1	1	6929	-2.0	-26	1	5
COc1ccc(-c2ccc(-c3nnn(CC(C)=O)n3)cc2)cc1	-1	-7	22673*	7.8	-60	9	4
COc1ccc(NC2c3ccccc3C(=O)N2c2cccnc2)cc1Cl (stereo not given)	4	-1	5527	-10	-17	3	11
Cc1ccc(NC(=O)CN2CCC(C(N)=O)CC2)cc1[N+](=O)[O-]	-1	-12	4689	0.1	-4	0	12
O=C(NCc1ccc2c(c1)OCO2)c1nn2cccnc2c1Cl	2	2	4481	4.2	-5	·	·
COc1ccc(/C=N/OCC(=O)N2CC3(C)CC2CC(C)(C)C3)cc1 (stereo not given)	9	·	11576	·	-24	·	·
NC1=NS(=O)(=O)NC1c1cccc(F)c1 (stereo not given)	-1	6	3839	0.5	-23	-3	-7
CCc1ccc(/C=C2/C(=O)NC(=O)N2C(C)=O)cc1	-6	-2	3796	0.3	-10	8	5
Nc1nc2n(n1)C(c1ccccc1Cl)CC(c1ccc(F)cc1)N2 (stereo not given)	-8	-7	4085	-4.4	0	·	·
Cc1cc(=O)n2nc(N3CCCC(C(=O)NCc4ccco4)C3)sc2n1 (stereo not given)	8	-6	2836	-8.7	-20	11	12
CN(c1ccc(C(=O)NCCC2=CCCCC2)cc1)S(C)(=O)=O	-2	3	2804	-1.1	-66	·	·
CS(=O)(=O)N(Cc1ccccc1)c1ccc(C(=O)Nc2ccc3c(c2)OCO3)cc1	-7	11	3357	2.6	-4	6	4
COc1ccccc1NS(=O)(=O)c1cc(NC(=O)c2cc(F)c(F)c(F)c2F)ccc1N1CCOCC1	·	-12	3448	3.8	3	17	10
COCCCNC(=O)c1ccc2c(c1)CCN2S(C)(=O)=O	3	9	22130*	2.4	-12	7	8
Cc1ccc(C(=O)N2CC(C)OC(C)C2)cc1S(=O)(=O)N1CCCCC1 (stereo not given)	·	-2	3742	2.2	-3	-4	1
CCCc1cc(C(=O)Cc2ccc(F)cc2)c(O)cc1O	9	-9	4051	10	-21	·	·
COc1ccccc1N1CCN(CCN(C(=O)c2ccc(F)cc2)c2ccccn2)CC1	·	2	5208	8.1	-2	2	2
Cn1c(=O)c2c(nc(Oc3ccccc3Br)n2C)n(C)c1=O	-2	-3	3967	2.0	-6	1	-4
COc1ccc(-n2nc(C(=O)NCC(=O)N3CCN(c4ccccc4OC)CC3)c3ccccc3c2=O)c(OC)c1	-3	1	3858	2.2	-26	-2	2
CC(C)OC(=O)c1ccc(NC(=O)c2cccc(-n3cnnn3)c2)cc1	·	5	5321	5.3	·	12	8
COc1cccc(-n2c(C)nnc2SCC#N)c1	-10	-4	11341	-2.6	-9	-11	2
CCOc1ccc(-c2nnc(N3CCOCC3)c3ccccc23)cc1	1	-11	3972	3.0	-18	5	9
CSc1cccc(NC(=O)CC(C)n2ccnc2)c1 (stereo not given)	6	6	3769	0.9	-17	4	-3
N#Cc1nc(-c2ccc([N+](=O)[O-])cc2)oc1N1CCCCC1	8	1	3876	-0.4	·	-3	3
CC(=O)Nc1ccc(S(=O)(=O)NCC2CCC(C(=O)NCCC3=CCCCC3)CC2)cc1 (stereo not given)	4	4	5178	0.6	-19	1	9
CC(=O)c1ccc2c(c1)C1C=CCC1C(c1ccc(S(=O)(=O)N3CCOCC3)cc1)N2 (stereo not given)	·	-3	2414	6.4	-19	-4	-15
CCOC(=O)c1ccc(-c2csc(NC(=O)CN3CCC(C)CC3)n2)cc1	-3	1	3875	-0.2	-24	16	17
O=C(O)CCn1c(=S)n(CCC(=O)O)c2ccccc21	5	6	4751	4.6	-24	0	8
O=C(CCC(=O)N(c1ccc(F)cc1)C(C(=O)NC1CCCC1)c1ccncc1)Nc1cccnc1 (stereo not given)	-5	2	9009	1.7	-3	3	2
CCOC(=O)c1c(C)c(C(=O)Nc2ccc(F)cc2)c(C)n1C	4	4	2578	4.4	-24	11	2
CC1CN(C(=O)c2ccc(C(=O)c3ccccc3)cc2)CC(C)O1 (stereo not given)	2	-2	7559	6.3	3	-4	11
CCOC(=O)c1sc2nc(CC(=O)OC)nc(N3CCN(c4ccc(OC)cc4)CC3)c2c1C	-3	3	9568	1.7	-19	-1	6
CC(C(=O)NC(=O)NC1CCCCC1)N1CCN(C(c2ccccc2)c2ccccc2)CC1 (stereo not given)	0	4	16823*	-0.9	-9	2	3
COc1ccc(CCN(C)Cc2cccc3ccccc23)cc1OC	0	15	3300	4.1	-25	-7	-2
C(=NN1CCOCC1)c1ccsc1	·	-1	·	-0.6	·	11	-2
CO/N=C(\Cn1ncc(NC2CCCCC2)c(Br)c1=O)c1ccc(Cl)cc1	4	·	4395	·	-17	·	·
COc1cccc(-n2cc(CN(C)Cc3nc(Cc4ccccc4)no3)cn2)c1	2	12	2420	0.8	1	4	3
CCCn1c(CN2CCCCC2CC)nc2c1c(=O)n(C)c(=O)n2C (stereo not given)	-3	-3	5454	-12	-23	8	7
CC(C)N1CCC(N2CCN(C3CCCCCC3)CC2CCO)CC1 (stereo not given)	0	2	2474	1.8	-12	0	-6
Cc1ccc(CNC(=O)c2cc(-c3ccccc3)nn2Cc2cc(C)no2)cc1	9	·	4159	·	-34	·	·

Among those listed so far, 2 contain bromine:
SMILES	BJeLR viability	Sa ugtP lethal	Bead autofluor	Sa RN4220 lethal	PrP 5UTR inh	Mtb hypoxia inh	Mtb hypoxia inh growth
Cn1c(=O)c2c(nc(Oc3ccccc3Br)n2C)n(C)c1=O	-2	-3	3967	2.0	-6	1	-4
CO/N=C(\Cn1ncc(NC2CCCCC2)c(Br)c1=O)c1ccc(Cl)cc1	4	·	4395	·	-17	·	·

Continued.
SMILES	BJeLR viability	Sa ugtP lethal	Bead autofluor	Sa RN4220 lethal	PrP 5UTR inh	Mtb hypoxia inh	Mtb hypoxia inh growth
CCCN1C2CCCC1CC(NC(=O)C1CCCCC1)C2 (stereo not given)	-8	2	9958	4.3	-16	-7	1
CC1CN(C(=O)CSc2cn(CC(=O)N3CCOCC3)c3ccccc23)CC(C)O1 (stereo not given)	-9	1	5981	0.6	-8	11	-5
COc1ccc(S(=O)(=O)NC(C)C(=O)N2CCCC2)cc1Cl (stereo not given)	7	9	3107	5.1	2	3	-5
CCCc1cc(=O)[nH]c(Nc2ccc(OC)c(Cl)c2)n1	·	-25	6006	1.4	-14	-3	4
O=C1N(c2ccccc2)C(c2ccccc2)C12CCCCC2 (stereo not given)	·	21	3585	0.6	-10	1	15
COc1ccc(C2=C(CC(=O)O)C(=O)CC2)cc1	2	5	2622	3.7	-4	10	6
CCN1C[C@@H]2[C@@H]3C(=O)N(Cc4ccccc4)C(=O)[C@@H]3[C@](CC)(C(=O)OC)N2C1=NC	·	7	4058	2.4	-13	1	2
CCOC(=O)C1=C(CSc2nc(-c3ccccc3)ccc2C#N)OC(N)=C(C#N)C1c1cccnc1 (stereo not given)	3	-2	7103	0.5	-29	·	·
CC(=O)N1CCN(C2=NC(=O)/C(=C\c3cccs3)S2)CC1	-3	1	3233	2.0	-32	18	23
CCOC(=O)c1ccc(NC(=O)c2nc[nH]c2C(=O)N[C@@H](CC(C)C)C(=O)OC(C)(C)C)cc1	5	·	2853	·	2	·	·
CSC1=N/C(=C\c2ccccc2)C(=O)N1C	-12	5	21913*	4.1	-13	3	4
Cc1cc(C)n(Cc2ccc(NC(=O)c3c([N+](=O)[O-])c(C)nn3C)cc2)n1	-13	0	21819*	4.1	-17	5	5
COCCN1Cc2cccc(C(=O)Nc3ccc(C)c(C)c3)c2C1=O	12	2	3265	-2.2	-4	·	·
COc1ccc(NC(=O)CN2CCN(CC(=O)Nc3cc(OC)cc(OC)c3)CC2)cc1	·	12	2665	-2.0	-12	·	·
O=C(OCC(=O)N1CCN(C(=O)c2ccco2)CC1)c1cc(-c2ccc(Cl)c(Cl)c2Cl)nc2ccccc12	5	4	7860	-2.6	-30	4	15
O=C(NCCN1CCCC1)c1ccc(Br)cc1	2	13	4416	2.1	-29	4	5
CCN(CCCNC(=O)c1c(C)cc(=O)oc1C)c1ccccc1	2	3	10261	3.0	-47	14	10
O=[N+]([O-])c1cccc(/C=N/NS(=O)(=O)c2ccccc2)c1	-4	·	3478	·	-22	·	·
COc1ccc(C=NNC(=O)c2[nH]c3ccc(Cl)cc3c2-c2ccccc2)c(C(=O)O)c1OC	·	12	·	-7.2	·	7	4
Cc1ccc(OCc2nnc(SCC(=O)c3ccccc3)n2Cc2ccco2)cc1	10	-21	2122	-3.6	-15	·	·

Some of the entries so far, with bars between the fields.
Compound | BJeLR viability | Sa ugtP lethal | Bead autofluor | Sa RN4220 lethal | PrP 5UTR inh | Mtb hypoxia inh | Mtb hypoxia inh growth
O=C(OCC(=O)N1CCN(C(=O)c2ccco2)CC1)c1cc(-c2ccc(Cl)c(Cl)c2Cl)nc2ccccc12 | 5 | 4 | 7860 | -2.6 | -30 | 4 | 15
COc1ccc(C=NNC(=O)c2[nH]c3ccc(Cl)cc3c2-c2ccccc2)c(C(=O)O)c1OC | · | 12 | · | -7.2 | · | 7 | 4
O=[N+]([O-])c1cccc(/C=N/NS(=O)(=O)c2ccccc2)c1 | -4 | · | 3478 | · | -22 | · | ·

Back to the main list; the two compounds before the break are reprinted first.
SMILES	BJeLR viability	Sa ugtP lethal	Bead autofluor	Sa RN4220 lethal	PrP 5UTR inh	Mtb hypoxia inh	Mtb hypoxia inh growth
COc1ccc(C=NNC(=O)c2[nH]c3ccc(Cl)cc3c2-c2ccccc2)c(C(=O)O)c1OC	·	12	·	-7.2	·	7	4
Cc1ccc(OCc2nnc(SCC(=O)c3ccccc3)n2Cc2ccco2)cc1	10	-21	2122	-3.6	-15	·	·
COc1cc(/C=C2\SC(=S)N(NC(=O)c3cccnc3)C2=O)ccc1O	13	-6	4221	5.3	-23	9	0
Cc1ccccc1N1CCN(CCC(=O)Nc2ccc(F)cc2)CC1	-17	2	3394	0.3	-17	13	5
Cc1ccccc1C(=O)N1CC(=O)Nc2ccc(F)cc2C1c1ccc(F)cc1 (stereo not given)	-4	-5	3024	0.6	-24	2	-1
CCn1cc(/C=N/N=C2\CCC3C4CCc5cc(O)ccc5C4CC[C@]23C)c(C)n1 (stereo not given in full)	3	·	2885	·	-8	·	·
O=C(NN=Cc1cc(Br)cc(Br)c1O)c1ccncc1	·	2	·	-7.4	·	3	10
COCCNC(=O)CN(c1cc(Cl)ccc1OC)S(C)(=O)=O	7	-3	10165	5.0	-19	-1	1
CCC(C)NC(=O)C1c2ccccc2C(=O)N1Cc1ccccc1OC (stereo not given)	2	6	8187	2.0	-10	7	5
COc1ccc(N(C(=O)c2snc(C(N)=O)c2N)C(C(=O)NC2CCCC2)c2ccc(OC)c(OC)c2)cc1 (stereo not given)	-3	13	3645	-2.8	-17	-5	-1
C=CCOC(=O)C1=C[C@H](c2csc3ccccc23)[C@@H](CCCO)[C@H](OCC)O1	-4	-13	3164	-6.6	-23	3	4
CCN(CC)S(=O)(=O)c1ccc(C(=O)NCc2ccc3[nH]c4c(c3c2)CCCC4)cc1	5	3	6771	8.6	-27	2	8

Source: PubChem (several laboratories)
